# Source: PubChem (National Center for Advancing Translational Sciences (NCATS))
# VACV mCherry inh: qHTS for Stage-Specific Inhibitors of Vaccinia Orthopoxvirus: mCherry Reporter Primary qHTS. Vaccinia virus mCherry reporter infection, fluorescence; about a quarter of the inactives have no number. Potency, µM (top dose mostly 36.5 µM), for the others: at the top dose activity change, negative = inhibition, most hits filed as inhibitors. 310,000 compounds, 0.63% hits; active = well fitted inhibition curve with a large enough effect; inconclusive = small, poorly fitted or top-dose-only effect; inactive = no such curve, though single readings can be large or run the other way; tested in A549 cells; note: nearly all actives have a fitted effect of over 35% in size; inactives centre near -10
# VACV Venus inh: qHTS for Stage-Specific Inhibitors of Vaccinia Orthopoxvirus: Venus Reporter Primary qHTS. Vaccinia virus Venus reporter expression, fluorescence. 330,000 compounds, 0.46% hits. Potency, µM (top dose mostly 36.5 µM), for the others: at the top dose activity change, negative = inhibition, actives largely listed as inhibitors; active means well fitted inhibition curve with a large enough effect; inconclusive means small, poorly fitted or top-dose-only effect; inactive means no such curve, though single readings can be large or run the other way; tested in A549 cells; note: nearly all actives have a fitted effect of over 30% in size; inactives centre near -10
# * marks the source's active call; other numbers are inactive results; i = inactive; ? = inconclusive; · = not tested or not shown; & = joins results of further samples; [ ] = dose if it differs, or a comment. % is set by controls: 0 for no effect and ±100 for the full control effect; potency is the fitted concentration of half-maximal effect.
SMILES,VACV mCherry inh,VACV Venus inh
CC(=O)c1ccc(N2CCN(C(=O)CCS(=O)(=O)c3ccc4c(c3)oc(=O)n4C)CC2)cc1,3%,-2%
O=C(CSCc1c(Cl)cccc1Cl)Nc1cccnc1,i,-10%
Cc1nc(-c2cccnc2)sc1C(N)=O,-9%,-2%
COc1ccccc1-c1cccc(-c2nc(C(=O)N3CCCCC3)cc3c2[C@H](CCO)N(S(=O)C(C)(C)C)C3)c1 (stereo partly drawn),10%,-7%
CCC1C(=O)NCCN1Cc1ccc2c(c1)CN(Cc1cccc(OC)c1)CCO2 (stereo not drawn),-2%,4%
C[C@@H]1CN(c2nc3nonc3nc2N2CCSCC2)C[C@H](C)O1,-23%,-6%
Cc1ccc(C2CC(c3cccs3)=NN2C(=O)CCl)cc1 (stereo not drawn),?,-11%
CCOc1ccc(-c2nnc3ccc(SCC(=O)Nc4nc5ccc(C)cc5s4)nn23)cc1,-3%,-1%
CC1CCCCC1NC(=O)c1cccc(NC2=NC3CS(=O)(=O)CC3S2)c1 (stereo not drawn),i,-15%
Cc1[nH]c2ccccc2c1C(=O)C(=O)N1CC2CC(C1)c1cccc(=O)n1C2 (stereo not drawn),-9%,-14%
COc1ccc(C(=O)NCC2OCCc3ccccc32)c(O)c1 (stereo not drawn),i,-18%
CCN1CCC(N(Cc2ccc3c(c2)OCO3)C(=O)Nc2cc(F)ccc2F)CC1,-7%,-3%
COc1cc(C)c(S(=O)(=O)N2CCOCC2)cc1C,i,-1%
CCn1cc(SCC(=O)NC2CCCC2)c2ccccc21,i,-20%
Cc1ccc2[nH]c(=S)n(-c3cccnc3)c(=O)c2c1,i[7.34 µM],-13%[7.34 µM]
Cc1noc(C)c1S(=O)(=O)Nc1ccc(C(=O)Nc2ccc(C(C)C)cc2)cc1,-10%,-10%
Cc1cc(C)n2c(SCCO)nnc2n1,i,-15%
CCOc1ccc(NC(=O)N2CCC(CN3CCC(C)CC3)CC2)cc1,-16%,-6%
COc1ccc(CCNC(=O)c2nc(-c3ccc(Cl)cc3)n3c2CCCCC3)c(OC)c1,-12%,-12%
CSc1nc2cc(C)nn2c(-c2ccc(C(C)(C)C)cc2)c1C#N,-15%,-9%
O=C(CSCc1cnn(-c2ccccc2)c1-n1cccc1)NCc1cccs1,·,-6%
COc1cc(/C=N/NC(=O)CCc2n[nH]c(=O)[nH]c2=O)cc(OC)c1OC,i,-9%
O=C(Cn1nc2sc3ccccc3n2c(=O)c1=O)c1ccc(Cl)cc1,i,-12%
COc1ccccc1C(=O)Nc1ccc2nc(SCC(=O)N3CCCC3)sc2c1,-10%,-16%
COC(C[C@@H]1O[C@@H]1C(=O)[C@@H](C)OCc1ccccc1)OC,i,1%
# Next compounds
SMILES,VACV mCherry inh,VACV Venus inh
O=C(Nc1ccc(Cl)cn1)c1ccc(COc2ccccc2Br)o1,-7%,-16%
CCOC(=O)C1=c2/c(=C/c3ccncc3)c(N)c(C(=O)OC)n2C(=O)C(c2ccncc2)S1 (stereo not drawn),-5%,-14%
CCn1nnc(NC(=O)C(C)(c2ccccc2)c2ccccc2)n1,i,-14%
Cc1ccccc1NC(=O)CNC(=O)c1ccc(C(F)(F)F)cc1,i,5%
O=C1N(c2ccc3c(c2)OCCO3)C(c2ccccc2)C1(F)F (stereo not drawn),-6%,-11%
CCN1/C(=C/c2ccc3cc(C)ccc3[n+]2CC)Sc2ccc3sccc3c21,-14%,38%[activator]
O=C(CSc1nnc(-c2cc(-c3cccs3)nc3ccccc23)o1)NC1CCCCC1,·,?
CC1=C(C(=O)Nc2ccc(C)cc2C)C(c2cccs2)NC(=S)N1 (stereo not drawn),-11%,-18%
C=CCn1c(=O)/c(=C/c2ccc(Cl)cc2)s/c1=C(/C#N)c1nnc2n1CCCCC2,0%,-5%
COc1ccc(C=C2CS(=O)(=O)CC(=Cc3ccc(OC)cc3)C2=O)cc1,?,?
CCc1ccc(-c2csc3ncn(CC(=O)N4CCOCC4)c(=O)c23)cc1,-11%,-1%
Cc1ccc(C(=O)N(CC(=O)NC2CCCC2)c2ccc3c(c2)OCCO3)s1,i,-4%
C[C@]12c3[nH]c4ccccc4c3CCN1C(=O)C(CC(=O)NCCN1CCOCC1)C[C@@H]2C(=O)N1CCOCC1 (stereo partly drawn),i,0%
CC1CC(C)CN(CC(=O)Nc2ccc(S(N)(=O)=O)cc2)C1 (stereo not drawn),·,-8%
COc1ccc(-c2nc(-c3ccc(NC(=O)c4ccc(Br)o4)cc3)no2)cc1OC,·,32µM*
CCOC(=O)c1cnc(SCC(=O)OCC(=O)N(CC)C2CCS(=O)(=O)C2)nc1N (stereo not drawn),-8%,1%
Cc1ccc(S(=O)(=O)N2CCOCC2)cc1NC(=O)COC(=O)Cn1c(C)csc1=O,-10%,-6%
Cc1c(C(=O)O)sc2nc(-c3cccs3)cc(C(F)(F)F)c12,-14%,-10%
COc1ccc([N+](=O)[O-])cc1NC(=O)C(C)OC(=O)C1CC(=O)N(Cc2ccco2)C1 (stereo not drawn),i,-14%
O=C(O)CCC(=O)Nc1ccc2c(c1)oc1ccccc12,i,-6%
Cc1ccc(C)c(N2CCN(C(=O)c3cccn4c(=O)c5sccc5nc34)CC2)c1,i,-18%
COc1ccc(C2=NO[C@@H]3C(=O)N(Cc4ccccc4)C(=O)[C@H]23)cc1OC,-11%,-6%
CC1(Cc2cn(CCC#N)c3ccccc23)OCCO1,-22%,-17%
CC(=O)N1CCCc2cc(S(=O)(=O)N3CCCC(C(=O)Nc4ccc(F)cc4F)C3)ccc21 (stereo not drawn),-25%,-25%
CCn1cc(/C=C/C(=O)Nc2c(C)nn(Cc3ccccc3C)c2C)cn1,i,-12%
# Remaining list, next part
SMILES,VACV mCherry inh,VACV Venus inh
CCN(CC)S(=O)(=O)c1cccc(NC(=O)COC(=O)C2COc3ccccc3O2)c1 (stereo not drawn),i,-11%
S=C1NCN(Cc2cccnc2)CN1c1cccc2ccccc12,?,3%
COCCCNC(=O)CCn1c(=O)c2ccccc2n(CC(=O)Nc2ccc(C)cc2C)c1=O,·,-15%
CC(=O)c1ccc(NC(=O)CCNS(=O)(=O)c2ccccc2F)cc1,-1%,-11%
CCCC1=C(C(=O)OCC)C(c2ccc(O)cc2)n2ncnc2N1 (stereo not drawn),·,-11%
S=C(NC1CCCCC1)N1CCOCCOCCN(C(=S)NC2CCCCC2)CCOCCOCC1,-21%,?
Cc1cc(C(=O)N/N=C/C=C/c2cccc([N+](=O)[O-])c2)n[nH]1,i,-8%
Cc1ccccc1OCc1nc2ccccc2c(=O)n1/N=C/c1cn[nH]c1-c1ccc(Br)cc1,-8%,-9%
Cc1ccc2cc(CN(CCN3CCCC3)C(=O)Nc3ccc(F)cc3)c(=O)[nH]c2c1C,i,-12%
CC(Oc1ccccc1)C(=O)Nc1ccc(S(=O)(=O)N2CCOCC2)cc1 (stereo not drawn),?,-3%
Cc1nn(-c2ccc(C(=O)O)cc2)c(C)c1Oc1ccccc1O,i,-4%
Cc1ccc(C)c(N2N=C(C(=O)NCCN3C(=O)S/C(=C\c4cccnc4)C3=O)CCC2=O)c1,-24%,-16%
OCC1(CCc2ccccc2)CCCN(C/C=C/c2ccccc2)C1 (stereo not drawn),-22%,-13%
CC1=CN2C(=N)/C(=C/c3ccco3)C(=O)N=C2S1,-5%,12%
Cn1c(N)c(C(=O)COC(=O)CCc2nc3ccccc3s2)c(=O)n(C)c1=O,-14%,-8%
COc1ccc(CN2C(=O)CSCC2(C)C(=O)Nc2ccc3c(c2)OCCO3)cc1 (stereo not drawn),-27%,-22%
CC(=O)OC1CC(O)C(C)(C)C2CC(OC(C)=O)[C@]3(C)C(CC[C@@]4(C)C(c5ccoc5)OC(=O)C5OC534)[C@]12C (stereo partly drawn),4%,6%
CCOC(=O)CCc1c(C)nc(SCCCn2c(=O)[nH]c3ccccc32)c(C#N)c1C,-11%,-7%
COc1ccc(-c2cnnn2-c2ccc([N+](=O)[O-])cc2)cc1,-15%,-13%
CC1CCN(S(=O)(=O)c2ccc(C(=O)Nc3ccccc3-c3nc4ccccc4[nH]3)cc2)CC1,-7%,-19%
O=C1N=C(N2CCOCC2)CS1,-8%,-1%
COC(=O)C[C@@H]1CC[C@@H](NS(=O)(=O)c2ccccc2OC)[C@@H](CO)O1,-17%,-8%
O=C(Cn1c(=O)n(Cc2ccccc2)c(=O)c2oc3ccccc3c21)Nc1ccc(Cl)cc1,-10%,-18%
Cc1cccc(NC(=O)N(Cc2cc3cc(C)ccc3[nH]c2=O)CC2COCCO2)c1 (stereo not drawn),?,-27%
CN(C)/C=C/C(=O)c1cnc2sccn2c1=O,-24%,4%

# 2 of these compounds, set out differently:
SMILES: COc1ccc(CN2C(=O)CSCC2(C)C(=O)Nc2ccc3c(c2)OCCO3)cc1 (stereo not drawn)
  VACV mCherry inh = -27%
  VACV Venus inh = -22%
SMILES: CCCC1=C(C(=O)OCC)C(c2ccc(O)cc2)n2ncnc2N1 (stereo not drawn)
  VACV mCherry inh = ·
  VACV Venus inh = -11%

# Next entries
SMILES,VACV mCherry inh,VACV Venus inh
Cc1cccc(-n2ncc3c(N4CCC(C)CC4)ncnc32)c1,6%,-7%
CCC1C(=O)CC(c2ccco2)NC1c1ccco1 (stereo not drawn),·,?
COC(=O)C1=C(c2cccc3c2S(=O)(=O)c2ccccc2-3)C[C@@H]2CC[C@H]1N2C(=O)N1CCc2cc(OC)c(OC)cc2C1,-2%,-27%
O=S(=O)(c1ccc2c(c1)OCCO2)N1CCN(c2ncnc3sccc23)CC1,?,-22%
N#Cc1ccc(C(=O)NCCCSc2ccccc2)cc1,-10%,-4%
CCCS(=O)(=O)NC(=O)C1(C)CCN(C(=O)c2oc3ccccc3c2C)C1 (stereo not drawn),i,1%
O=C(c1cnn(C(=O)c2cccc(S(=O)(=O)N3CCOCC3)c2)c1)c1cc(Cl)cc(Cl)c1O,-15%,-8%
O=C(CSc1nc(-c2ccco2)cc(C(F)(F)F)n1)NCCCN1CCOCC1,-12%,-26%
COc1ccc(C(=O)N2CCSC2=S)cc1OC,·,-40%
Cc1ccccc1CSCCNC(=O)c1ccc(Cl)c(S(=O)(=O)N2CCOCC2)c1,-8%,?
CCC(C)Oc1nc2c(c(=O)n(C)c(=O)n2C)n1C (stereo not drawn),-6%,-6%
COCC(=O)NCc1ccc2c(c1)cc(C)n2C,i,3%
COc1ccc(NC(=O)C(C)N2CCN(C)CC2)cc1 (stereo not drawn),2%,-12%
CC(C)(C)OC(=O)N1CCC(c2c(C(=O)NCc3ccc4c(c3)OCO4)cnn2-c2ccc(F)cc2F)CC1,-17%,-14%
Cc1ccc(OCC(=O)c2c(O)c3ccccc3oc2=O)cc1C,·,3%
CCSc1nnc(NS(=O)(=O)c2ccc(C)cc2)s1,-4%,-9%
COC(=O)Cn1c2ccc(OC)cc2c2nc(C)sc21,i[7.34 µM],2%[7.34 µM]
COc1cc2c(cc1OC)C(c1cccc(Cl)c1)CC(=O)N2 (stereo not drawn),0%&1%,-7%&-5%
COc1cccc(C(=O)Nc2cc(S(=O)(=O)N3CCCCC3)ccc2OC)c1,i,-22%
Cc1ccc(OC(C)C(=O)O)cc1C (stereo not drawn),-12%,-4%
O=C(c1ccc(Br)o1)N(Cc1ccccc1)Cc1ccccc1,-7%,-1%
c1ccc(C2=Nn3c(nnc3-c3cc(-c4ccccc4)n[nH]3)SC2)cc1,·,?
CC(C)CNC(=O)COC(=O)c1ccccc1OCC(=O)Nc1ccc(Br)cc1,-10%,-10%
Cc1ccc2ccc3cc(C(=O)N4CCN(c5ccccc5)CC4)nc3c2[nH]1,-13%,-10%
CCCOc1ccc(-c2nc(SC)[nH]c(=O)c2C#N)cc1OC,-11%,-8%
COc1ccc(N2CCOCC2)c(NC(=O)COc2cccc(C)c2C)c1,-25%,-21%
COC(=O)N/N=C/c1cn(Cc2ccc(Cl)cc2Cl)c2ccccc12,-5%,-10%

# Gathered by group, the compounds so far containing an aryl thioether with sulfur outside any ring
SMILES,VACV mCherry inh,VACV Venus inh
CCOc1ccc(-c2nnc3ccc(SCC(=O)Nc4nc5ccc(C)cc5s4)nn23)cc1,-3%,-1%
CCn1cc(SCC(=O)NC2CCCC2)c2ccccc21,i,-20%
Cc1cc(C)n2c(SCCO)nnc2n1,i,-15%
CSc1nc2cc(C)nn2c(-c2ccc(C(C)(C)C)cc2)c1C#N,-15%,-9%
COc1ccccc1C(=O)Nc1ccc2nc(SCC(=O)N3CCCC3)sc2c1,-10%,-16%
O=C(CSc1nnc(-c2cc(-c3cccs3)nc3ccccc23)o1)NC1CCCCC1,·,?
CCOC(=O)c1cnc(SCC(=O)OCC(=O)N(CC)C2CCS(=O)(=O)C2)nc1N (stereo not drawn),-8%,1%
CCOC(=O)CCc1c(C)nc(SCCCn2c(=O)[nH]c3ccccc32)c(C#N)c1C,-11%,-7%
N#Cc1ccc(C(=O)NCCCSc2ccccc2)cc1,-10%,-4%
O=C(CSc1nc(-c2ccco2)cc(C(F)(F)F)n1)NCCCN1CCOCC1,-12%,-26%
CCSc1nnc(NS(=O)(=O)c2ccc(C)cc2)s1,-4%,-9%
CCCOc1ccc(-c2nc(SC)[nH]c(=O)c2C#N)cc1OC,-11%,-8%
